From PubChem
CDC25B CDK2 inh: human CDC25B-CDK2/CyclinA binding inhibition; P30305+P24941; HTRF CDC25B-CDK2/CyclinA binding, anti-His/anti-Flag; hits give high values; z-score (no concentration beside the values); 0.72% of 94,000 active;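 further: score is relative to mean and SD of negative controls; strong numbers were not always called active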
HIV TAR-Tat: HIV-1 TAR-Tat binding disruption; HIV-1 TAR RNA, Tat peptide displacement FRET; hits give high values; z-score (no concentration beside the values); 0.6% of 100,000 active;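 further: score is relative to mean and SD of negative controls; some compounds called inactive have numbers as strong as hits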
Numbers without * were called inactive; . = not tested or not shown.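 How the source made its calls: active means z-score from 3 up in half or more of its runs; inactive means the rest.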

SMILES	CDC25B CDK2 inh	HIV TAR-Tat
CC(C)CN1CCc2nc(N3CCOCC3)ncc2C1	.	0.08
CS(=O)(=O)OCC(COS(C)(=O)=O)(C1CCCCC1)[N+](=O)[O-]	-1.7	.
O=C(NCc1ccccc1)NC1COc2ccccc2C1 (configuration not stated)	.	0.89
Cc1ccc(S(=O)(=O)Nc2ccccc2SCc2cc(=O)n3nc(C(C)C)sc3n2)cc1	.	-0.47
CCCSc1nc2c(c(=O)[nH]1)C(c1cccnc1)C(C(=O)OCC)=C(C)N2 (configuration not stated)	-1.3	-0.77
NC1C(O)OC(CO)C(O)C1O (configuration not stated)	-1.8	.
CCCNc1nc(-c2ccc(Br)cc2)cs1	-0.94	0.76
Cc1ccc2oc(C(=O)N(Cc3ccc(Cl)cc3)C3CCS(=O)(=O)C3)cc(=O)c2c1 (configuration not stated)	-0.13	1.2
Cc1csc2nc(CSCc3ccc(Cl)cc3)cc(=O)n12	-2.8	-1
CC1(C)Cc2c(sc3[nH]c(=O)n4nc(-c5ccco5)nc4c23)CO1	-0.18	-0.03
CC(CCc1ccccc1)NC(=O)Nc1cn(C)c(=O)c2ccccc12 (configuration not stated)	.	0.69
O=C(O)CCn1c(=O)[nH]c2ccccc2c1=O	-2.5	.
CN(CCCNS(=O)(=O)c1ccc2[nH]c(=O)ccc2c1)Cc1ccccc1	.	1.1
Cc1ccc2c(c1)-c1c(cnn1CC(=O)N(CCN(C)C)Cc1ccco1)CO2	-1.8	1.1
CC(O)(c1ccc(O)cc1)C(CN1CCCCC1)c1ccccc1 (configuration not stated)	-1.9	0.88
O=C(NCCCN(Cc1ccco1)C1CCCC1)c1cc2c(s1)-c1ccccc1SC2	-0.15	-5.3
CSc1cccc(NC(=O)Nc2nc3c(s2)CCCCCC3)c1	.	0.12
COc1cc(OC)c(NC(=O)N2CC3CCCN3c3ccccc32)cc1Cl (configuration not stated)	.	-0.65
Cc1cc2cc(CCNC(=O)CCC3CCCCC3)c(=O)[nH]c2cc1C	-1.3	.
Cn1cc(C(=O)Nc2cccnc2)c2ccccc2c1=O	0.1	-0.65

Given with two lines to a compound: part of the list above.
Results follow in this order: CDC25B CDK2 inh	HIV TAR-Tat
O=C(O)CCn1c(=O)[nH]c2ccccc2c1=O
→ -2.5	.
Cc1ccc(S(=O)(=O)Nc2ccccc2SCc2cc(=O)n3nc(C(C)C)sc3n2)cc1
→ .	-0.47

Returning to the listing, starting seven compounds before the break.
SMILES	CDC25B CDK2 inh	HIV TAR-Tat
Cc1ccc2c(c1)-c1c(cnn1CC(=O)N(CCN(C)C)Cc1ccco1)CO2	-1.8	1.1
CC(O)(c1ccc(O)cc1)C(CN1CCCCC1)c1ccccc1 (configuration not stated)	-1.9	0.88
O=C(NCCCN(Cc1ccco1)C1CCCC1)c1cc2c(s1)-c1ccccc1SC2	-0.15	-5.3
CSc1cccc(NC(=O)Nc2nc3c(s2)CCCCCC3)c1	.	0.12
COc1cc(OC)c(NC(=O)N2CC3CCCN3c3ccccc32)cc1Cl (configuration not stated)	.	-0.65
Cc1cc2cc(CCNC(=O)CCC3CCCCC3)c(=O)[nH]c2cc1C	-1.3	.
Cn1cc(C(=O)Nc2cccnc2)c2ccccc2c1=O	0.1	-0.65
CCOc1nc(-c2ccccc2)ccc1-c1noc(-c2ccc(OC)c(OC)c2)n1	2.6	1.2
CC(C)COC(=O)NC(C)C(=O)O (configuration not stated)	-1.5	0.97
CCC(Oc1ccccc1)c1nc2ccccc2n1CC (configuration not stated)	1.2	0.58
Cc1cc(F)ccc1NC(=O)CC(C)S(=O)(=O)c1ccc2c(c1)CCN2C(=O)C1CC1 (configuration not stated)	.	-0.42
CC(=O)c1cccc(NC(=O)c2ccc(-c3cccc(Cl)c3)o2)c1	-4.5	.
COc1ccc(-c2oc3ncn4nc(-c5ccccn5)nc4c3c2-c2ccc(OC)cc2)cc1	1.1	-0.52
CCN(CC)CCSc1nnc2c3cc(F)ccc3n(C)c2n1	0.7	0.31
COc1ccc(S(=O)(=O)c2cnc(SCC(=O)NCCC3=CCCCC3)[nH]c2=O)cc1Cl	-0.85	-0.95
O=C(Nc1ccccc1Cl)c1[nH]nc2c1COc1ccccc1-2	.	0.63
COCCn1c2c(c(=O)[nH]c1=O)C(c1ccc(C(=O)O)cc1)C1=C(N2)c2ccccc2C1=O (configuration not stated)	-1.5	1.5
O=C(OCn1nnc2ccccc2c1=O)c1ccccc1F	-1.8	.
CSc1cccc(NC(=O)CCCc2nnc3n(C)c(=O)c4sccc4n23)c1	.	-0.93
Cc1c(C(=O)N(C)c2ccccc2Cl)sc2nc3n(c(=O)c12)CCCC3	.	0.09
O=C(Cn1cnc(S(=O)(=O)N2CCc3ccccc32)c1)N1CCN(c2cccc(Cl)c2)CC1	.	1.2
CN(C)Cc1c(O)ccc2c(=O)c(Oc3ccc4ccccc4c3)c(C(F)(F)F)oc12	0.15	0.37
CN(C)CCOC(c1ccc(Cl)cc1)c1ccccn1 (configuration not stated)	.	1.7
CC(C)Cn1cc(NC(=O)NC2CCCC2)c2ccccc2c1=O	.	0.85
CN(C(=O)Cc1noc2ccccc12)c1cccc(Cl)c1	-0.88	0.74
COc1ccc(Cc2nnc(Nc3c(C)cccc3C)o2)cc1OC	-1.8	.
CCN(CC)CCNc1ncnc2c1sc1nc3c(cc12)COC(C)(C)C3	0.97	1

Some of the entries so far, with values under each structure.
Every second line gives: CDC25B CDK2 inh	HIV TAR-Tat
CC(=O)c1cccc(NC(=O)c2ccc(-c3cccc(Cl)c3)o2)c1
  -4.5	.
O=C(Cn1cnc(S(=O)(=O)N2CCc3ccccc32)c1)N1CCN(c2cccc(Cl)c2)CC1
  .	1.2
CN(C)Cc1c(O)ccc2c(=O)c(Oc3ccc4ccccc4c3)c(C(F)(F)F)oc12
  0.15	0.37
CN(C(=O)Cc1noc2ccccc12)c1cccc(Cl)c1
  -0.88	0.74
CCOc1nc(-c2ccccc2)ccc1-c1noc(-c2ccc(OC)c(OC)c2)n1
  2.6	1.2

The list goes on.
SMILES	CDC25B CDK2 inh	HIV TAR-Tat
CC1=C(c2ccc(C)cc2)S(=O)(=O)NC1=NC(C)CCc1ccccc1 (configuration not stated)	-1.3	0.69
COc1ccc(Cl)cc1NC(=O)c1sc(=S)n2c1[nH]c(=O)c1ccccc12	-1.9	0.45
O=C1O[C@H]([C@@H](O)CO)C(O)=C1O	.	0.06
COc1ccc(COCC(O)CNC2Cc3ccccc3C2)cc1 (configuration not stated)	-0.49	.
O=S(=O)(Cc1ccccc1)N1CCN(c2cc(-c3ccccc3)ncn2)CC1	.	2.4
CN1CCc2nc(SCc3ccccc3C(F)(F)F)c(C#N)cc2C1	-2.2	.
COc1cc(OC)c(NC(=O)c2oc3ccc4c(c3c2C)C(=O)CC(C)(C)O4)cc1Cl	.	-0.55
CCCNC(=O)C1CCCN(c2nn3c(=O)c4c(nc3s2)CCCC4)C1 (configuration not stated)	.	0.88
O=C1OC(c2ccccc2Cl)Sc2ccccc21 (configuration not stated)	-0.83	.
CC(C)OCCCNc1nc2c(S(=O)(=O)c3cccc(Cl)c3)nnn2c2ccsc12	.	0.6
CCOC(=O)C1CCCn2c1nc1sc3c(c1c2=O)CCCC3 (configuration not stated)	-1.8	.
CC1CC(=O)Nc2cc(S(=O)(=O)N3CCn4c3nc3ccccc34)ccc2S1 (configuration not stated)	.	2.5
CCCCN1C(=O)C(O)(CC(=O)c2ccco2)c2cc(Br)ccc21 (configuration not stated)	1.1	.
Oc1cccc(Nc2nc3ccc(Cl)cc3n3cnnc23)c1	0.36	-0.48
CCN1CCCC1CNC(=O)c1sc2ncccc2c1-n1cccc1 (configuration not stated)	.	0.75
CCOc1ccc(-c2c(C)sc3ncn(C(C)C(=O)O)c(=O)c23)cc1 (configuration not stated)	0.79	1
CC(=O)Oc1ccc(C2C(C#N)=C(C)NC3=C2C(=O)CC(c2ccccc2)C3)cc1 (configuration not stated)	-2.2	0.83
CCCOC(=O)C1=C(C)NC2=C(C(=O)CCC2)C1c1cc(Br)c(O)c(OCC)c1 (configuration not stated)	-0.86	1.7
Cc1ccc(-n2ncc3c(NCc4cccnc4)ncnc32)cc1	.	2.1
CCN(CC)CC(O)COCc1nc2c(c(=O)n(C)c(=O)n2C)n1C (configuration not stated)	-1.6	-0.88
Cc1nc(N2CCOCC2)c2c(C(=O)N3CCN(c4ccccc4)CC3)c(C)oc2n1	.	1.3
NC(=O)c1cc(-c2ccccc2)sc1NC(=O)c1ccco1	-0.57	0.14
CCc1nnc(NC(=O)c2cc(=O)c3c(C)cc(C)cc3o2)s1	0.31	-0.65
CC1C=CCC2C(=O)N(c3cccc(C(=O)OCC(=O)c4ccc(Br)cc4)c3)C(=O)C12 (configuration not stated)	-1.8	0.42
Cc1ccc(S(=O)(=O)Nc2cccc(-c3nc(-c4ccccc4C)co3)c2)cc1	.	1.5
Cc1ccc(CNc2nnc(Cc3ccncc3)c3ccccc23)cc1	-0.97	1.3
Brc1cccc(-c2nnn3c2nc(NCC2CCCO2)c2ccccc23)c1 (configuration not stated)	-1.9	1
N#Cc1cccnc1NNC(=O)Nc1ccc(OCc2ccccc2)cc1	-0.01	.
Oc1ccc(CN2CCC(Cc3ccccc3)CC2)c2cccnc12	-1.2	0.13
CCNC(=O)c1cc2c(=O)n3ccccc3nc2n1C	.	0.09
CCn1c(N)c(C(=O)Nc2ccccc2)sc1=S	.	1.6
CC1CCCN(CCCNC(=O)C2CCN(c3ncnc4c3nc3n4CCCCC3)CC2)C1 (configuration not stated)	.	-1.6
COc1cc(Cl)cc2c1OC=CC(C(=O)N1CCOCC1)=C2	-1	-0.9
c1ccc(NC2CCCCC2)nc1	-0.9	.
CCN1c2ccccc2-c2nc(SCC(=O)Nc3ccccc3)ncc2S1(=O)=O	.	-0.22
Cc1ccc(Cl)cc1NC(=O)C1CC2CSCN2C12C(=O)Nc1ccccc12 (configuration not stated)	.	-2.5
COc1ccccc1C1NC(=O)CCC1[N+](=O)[O-] (configuration not stated)	0.63	3.4
Cc1ccc2c(CC(=O)N(Cc3ccc(F)cc3)C3CCS(=O)(=O)C3)coc2c1 (configuration not stated)	-2.6	0.32
CCSc1nnc(NC(=O)c2nn(-c3cccc(Cl)c3)ccc2=O)s1	-1.6	0.51
Cc1noc(C)c1C(=O)N1CCOCC1	-2.3	.
O=C(O)c1c(O)cnc2ccccc12	-1.3	-0.98
COc1ccc(C2CC(=O)C3=C(C2)NC(=O)CC3c2ccc(O)cc2)cc1OC (configuration not stated)	-1.5	0.61
COCCNC(=O)N1CCN(c2nc3cc(F)ccc3n3cccc23)CC1	.	1.2
CC1CCc2nn(CC(=O)NCCCN3CCCCC3C)cc2C1 (configuration not stated)	0.57	.
O=C1CC(N2CCN(C(c3ccccc3)c3ccccc3)CC2)C(=O)N1c1cccc(Cl)c1 (configuration not stated)	-0.41	-0.19
CCCCC(Nc1ncnc2ccc(Br)cc12)C(=O)O (configuration not stated)	-1.6	-0.19
Cc1cc(=O)[nH]c2c1c(=O)[nH]n2C1CCCCC1	-2.1	1.1
CN(C)c1cc(N2CCCCC2)c2c3c(onc13)-c1ccccc1C2=O	-0.64	-1.6
COc1ccc(NC(=O)CSc2nc3c(c(=O)n2C)SCC3)cc1	-1.4	0.32
CCOc1ccc(-n2c(C)c(C)c3c2ncn2nc(-c4ccc(OC)c(OC)c4)nc32)cc1	-1.5	0.94
O=C(Cn1cnc2c(nnn2-c2cccc(Cl)c2)c1=O)Nc1ccccc1F	-1	.
COc1cccc(C2CC(=O)N3CN(c4ccc(OC)cc4OC)CSC3=C2C#N)c1 (configuration not stated)	5.9*	-0.1
COc1ccc(C2c3c(oc4ccc(Cl)cc4c3=O)C(=O)N2CCCN(C)C)cc1OC (configuration not stated)	.	0.33
C=CCNc1nc(-c2ccc(OC)cc2)cs1	-2.7	1.2
CCOc1ccc2c(c1)-c1c(sn(-c3ccc(OC)cc3)c1=S)C(C)(C)N2	-2.2	0.47
Cc1scc(CCNC(=O)Nc2ccc3c(c2)OCCO3)c1C	.	-0.24
Cc1ccccc1-n1cc2c(c1-c1ccccc1Br)c(=O)n(C)c(=O)n2C	0.03	0.31
Nc1c(-c2nc(-c3ccccc3Cl)no2)nnn1-c1ccc(Cl)cc1	.	-0.37
Cc1ccc(C)c(C(Nc2ccccn2)c2ccc3cccnc3c2O)c1 (configuration not stated)	-1.2	0.35
CC1(C)CC(=O)c2sc(NC(=O)CN3CCOCC3)nc2C1	0.37	1.3

The list goes on.
SMILES	CDC25B CDK2 inh	HIV TAR-Tat
CC1=CC(C)(C)Nc2ccc(OC(=O)c3ccc(Cl)cc3)cc21	-2.6	-1.3
COC(=O)c1sc2cccc(F)c2c1S(=O)(=O)Nc1cc(OC)cc(OC)c1	.	0.6
O=C(c1ccco1)N1CCN(c2nc3ccsc3c(=O)s2)CC1	0.14	0.16
CCCN1CCN(CCCNC(=O)C2CCN(c3nnc(N4CCCC4=O)s3)CC2)CC1	-0.78	1.3
O=[N+]([O-])c1ncn(Cc2cccc(Br)c2)n1	-1.6	.
CC(C)(C)c1cc(C(=O)/C=c2/[nH]c(=O)/c(=C/c3ccc(Cl)cc3)s2)no1	-2.4	.
Cc1nc(C(F)(F)F)ccc1NC(=O)C(F)(F)Sc1ccccc1	-2.8	.
CCCc1c(C)c(C#N)c2nc3ccccc3n2c1NCCCn1ccnc1	-1.5	-0.27
Cc1cccc(Nc2nc(-c3cc4cc(Cl)ccc4oc3=O)cs2)c1	-0.86	.
CC1=C(c2ccc(Cl)cc2)S(=O)(=O)NC1=NCc1cccc(C)c1	-8.1	0.04
Fc1ccccc1N1CCN(c2c3c(nc4ncnn24)CCCC3)CC1	.	-0.86
